D2 ag: human D2 receptor agonism in beta-arrestin assay; AID 624465; 360,000 compounds, 0.084% hits; DiscoveRx PathHunter D2 beta-arrestin, luminescence, 90 min; 100% = 57 uM dopamine signal; activation, % (concentration not given with the values); P14416; in the data active = activation above about 40%; inconclusive = about 15% to 40%; inactive = below about 15%; note: the text of the record calls up to 30% inactive
Target sequence (P14416 whole entry, looked up): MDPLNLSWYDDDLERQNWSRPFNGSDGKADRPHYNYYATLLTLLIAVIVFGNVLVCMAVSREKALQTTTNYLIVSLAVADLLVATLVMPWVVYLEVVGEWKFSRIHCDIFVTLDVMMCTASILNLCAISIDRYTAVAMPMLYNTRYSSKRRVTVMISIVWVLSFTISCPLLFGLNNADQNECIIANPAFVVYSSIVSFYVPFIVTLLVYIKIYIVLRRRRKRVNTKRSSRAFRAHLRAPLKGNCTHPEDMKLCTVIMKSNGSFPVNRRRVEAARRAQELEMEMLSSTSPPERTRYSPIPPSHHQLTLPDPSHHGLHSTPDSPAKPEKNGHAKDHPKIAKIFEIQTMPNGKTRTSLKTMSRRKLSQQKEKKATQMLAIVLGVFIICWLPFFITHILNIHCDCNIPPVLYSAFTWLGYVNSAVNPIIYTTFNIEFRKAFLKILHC
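Agonist mode: compounds alone added to overnight-plated D2 PathHunter cells for 90 min at 37 C, with 57 uM final dopamine (EC100) defining full response. Beta-arrestin recruitment detected by chemiluminescent reagent, read after 1 h at ambient temperature.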
CtBP-E1A inh: inhibitors of CtBP/E1A interaction | activity change, % (no concentration beside the values) | AlphaScreen GST-E1A/His-CtBP binding, 1536-well; hits give low values; control for the full effect not named in the record | 340,000 compounds, 0.49% hits | AID 651724; in the data active means activity change below about -65%; inconclusive means about -30% to -65%; inactive means above about -30%; note: % is set by controls: 0 for no effect and ±100 for the full control effect
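Homogeneous bead-based format: GST-tagged E1A captured on glutathione donor beads, His-tagged CtBP on nickel acceptor beads; compounds precede bead addition by 2 h at 37 °C.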
D2 PAM: potentiates the human D2 dopamine receptor allosterically; P14416; DiscoveRx D2 beta-arrestin cells, luminescence, 90 min; 100% = 57 uM dopamine signal; potentiation, % (no concentration beside the values); 360,000 compounds, 0.23% hits; AID 624464; active = potentiation of 50% or more; inconclusive = 30% to 50%; inactive = 30% or less;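 note: compound concentration not given in the record; tested on top of an EC20 dose of dopamine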
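D2 cells co-treated with compound plus 50 nM dopamine (EC20) for 90 min at 37 deg C to detect potentiation. Beta-arrestin recruitment was read as enzyme-fragment luminescence after 1 h at ambient temperature. Full response was set by 57 uM dopamine.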
gsp antagonist: gsp mutant antagonism; gsp-mutant cells, cAMP HTRF, 30 min; control for the full effect not named in the record; Potency, µM (highest dose often 76.9 µM), inactives show top-dose activity change, negative = inhibition, actives largely listed as inhibitors; 340,000 compounds, 0.4% hits; active = falling curve of any shape with a large fitted effect; inconclusive = falling curve, mostly with a smaller effect; inactive = flat or rising curve; cell line not stated here;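 note: intracellular cAMP measured with PDE inhibitor Ro 20-1724 present during compound exposure; potency is the fitted concentration of half-maximal effect; % is set by controls: 0 for no effect and ±100 for the full control effect; nearly all actives have a fitted effect of over 65% in size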
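Cells in G418 medium, seeded 16-24 h, 37C; buffer exchange to DPBS + 1 mM CaCl2, 0.5 mM MgCl2, 0.05% BSA; cpds in DMSO + […] (300 uM stock), 30 min 37C; HTRF cAMP detection.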
Six1-Eya2 blk: blocks human Six1 binding to Eya2 | Q15475+O00167 | AlphaScreen GST-Six1/His-Eya2 binding, biochemical; hits give low values; control for the full effect not named in the record | activity change, % (concentration not given with the values) | 360,000 compounds, 0.56% hits | AID 651725; in the data active = activity change below about -65%; inconclusive = about -30% to -65%; inactive = above about -30%; note: % is set by controls: 0 for no effect and ±100 for the full control effect
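AlphaScreen with GST-Six1 and His-Eya2 (5X mix: 250 nM and 500 nM), glutathione donor and nickel acceptor beads; buffer 50 mM Tris pH 8.0, 300 mM NaCl, 1 mM TCEP; 1 h at 37 C in the dark.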
gsp ag: activates gsp, the McCune-Albright syndrome mutation. gsp mutant cells, cAMP HTRF, 30 min; control for the full effect not named in the record. Potency, µM (titrated, usually from 76.9 µM), for inactives: top-dose activation (cAMP increase), actives largely listed as activators. 340,000 compounds, 0.13% hits; active = well fitted activation curve with a large enough effect; inconclusive = small, poorly fitted or top-dose-only effect, or another doubt; inactive = no such curve, though single readings can be large or run the other way; cell line not stated here;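 note: phosphodiesterase inhibitor Ro 20-1724 added with compounds to block cAMP breakdown; potency is the fitted concentration of half-maximal effect; nearly all actives have a fitted effect of over 60% in size; about a fifth of the inactives were tested at one dose only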
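Cells stably selected in G418 were plated at 2000/well, grown 16-24 hr, then given compounds in DMSO with the PDE inhibitor […] (300 uM solution added) for 30 min at 37C; cAMP was read by HTRF.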
Active calls of the source: *; ? = inconclusive; · = not tested or not shown; [ ] = dose if it differs, or a comment.

SMILES	D2 ag	CtBP-E1A inh	D2 PAM	gsp antagonist	Six1-Eya2 blk	gsp ag
O=C(CSc1nnc(SCc2ccc(F)cc2)s1)Nc1ccc(C(=O)O)cc1	-1.6	4	-7	-1%	5	-11%[15.4 µM]
COc1cccc(NC(=S)N2CCC(NC(=O)C3CCCCC3)CC2)c1	1.2	17	1	4%	2	-6%[15.4 µM]
CC(C)CN1CCC(CNC(=O)CCc2nnc(Cc3c[nH]c4ccccc34)o2)CC1	-5.4	3	-8	-9%	-3	12%
COc1cc(Cl)ccc1OCc1cc(C(=O)N(C)Cc2nnc(C)o2)no1	-3.5	-2	-19	6%	4	13%[15.4 µM]
CCCCC(CC)C(=O)Nc1cc([N+](=O)[O-])ccc1F (stereo not drawn)	-3.7	0	-4	4%	3	-21%
Cc1ccc([N+](=O)[O-])cc1NC(=O)CCSc1ccc(Cl)cc1	-1.4	0	-33	-21%	-3	-30%[inhibitor]
CCN1C[C@@H]2[C@@H]3C(=O)N(C)C(=O)[C@@H]3[C@](C)(C(=O)OC)N2C1=NC	-1.2	4	1	9%	7	·
CCCn1c(N)c(C(=O)CN(C)CC(=O)Nc2ccccc2C(F)(F)F)c(=O)[nH]c1=O	-2.0	·	12	1%	0	3%
O=C(c1ccncc1)N1CCc2ccccc2C1	1.9	5	-4	6%	4	-4%
Cc1c(C)[n+](=O)c2c(n1[O-])C(Br)CCC2Br (stereo not drawn)	-9.3	0	0	2%	7	5%[15.4 µM]
N#CCSc1ccc(S(=O)(=O)N2CCOCC2)cn1	-2.7	0	-1	4%	-3	21%
COCCCNc1nc2c([nH]1)c(=O)[nH]c(=O)n2C	-3.9	3	4	-7%	2	-4%
Cc1cc(=O)oc2c(CN3CCCCC3)c(O)ccc12	0.2	13	-11	6%	2	6%
COC(=O)c1ccc(C)c(NC(=O)CCc2ccc(OC)c(OC)c2)c1	-0.8	-4	-8	6%	4	14%[15.4 µM]
Nn1c(SCC(=O)NC2CCCC2)nnc1-c1ccccc1F	-2.5	6	-1	8%	9	?
NC(=O)Cn1cnc(-c2ccccc2)c1	-6.0	14	-5	1%	6	-2%[15.4 µM]
COc1cc(OC)cc(C(=O)N2CCC(C(=O)NCCc3ccccc3)CC2)c1	-5.7	-3	-13	1%	4	-3%
CC(C)c1ccc(NC(=O)CSc2nc3ccsc3c(=O)n2CCC(=O)O)cc1	-2.7	2	-1	2%	-2	-18%
COc1cccc(C(=O)NCC2CCCN2S(=O)(=O)c2cccs2)c1 (stereo not drawn)	0.0	9	-15	9%	-2	-8%
COc1cc(C(=O)NC2CCN(C)CC2)ccc1Nc1ncc2c(n1)N(C1CCC(O)CC1)CCC(=O)N2C (stereo not drawn)	-1.5	0	-11	4%	-4	·

A stretch taken from the entries so far, as a working copy:
SMILES	D2 ag	CtBP-E1A inh	D2 PAM	gsp antagonist	Six1-Eya2 blk	gsp ag
COc1cccc(C(=O)NCC2CCCN2S(=O)(=O)c2cccs2)c1 (stereo not drawn)	0.0	9	-15	9%	-2	-8%
COc1cc(C(=O)NC2CCN(C)CC2)ccc1Nc1ncc2c(n1)N(C1CCC(O)CC1)CCC(=O)N2C (stereo not drawn)	-1.5	0	-11	4%	-4	·

The listing picks up; the 3 compounds before the break are reprinted first.
SMILES	D2 ag	CtBP-E1A inh	D2 PAM	gsp antagonist	Six1-Eya2 blk	gsp ag
CC(C)c1ccc(NC(=O)CSc2nc3ccsc3c(=O)n2CCC(=O)O)cc1	-2.7	2	-1	2%	-2	-18%
COc1cccc(C(=O)NCC2CCCN2S(=O)(=O)c2cccs2)c1 (stereo not drawn)	0.0	9	-15	9%	-2	-8%
COc1cc(C(=O)NC2CCN(C)CC2)ccc1Nc1ncc2c(n1)N(C1CCC(O)CC1)CCC(=O)N2C (stereo not drawn)	-1.5	0	-11	4%	-4	·
O=C(Nc1ccccc1Cl)N1CCN(Cc2ccc3c(c2)OCO3)CC1	-2.4	-2	-11	-1%	5	-2%[15.4 µM]
O=C(Nc1ccc(OC(F)(F)F)cc1)c1ccc2ccccc2n1	-4.1	20	-12	-12%	8	-13%
O=C(COc1ccc(Cl)cc1Cl)N1CCN(C(=O)c2ccco2)CC1	-0.5	4	0	3%	-7	18%
Cn1c(=O)n(Cc2ccco2)c(=N)c2c3c(sc21)CCC3	-2.0	-11	1	-6%	-11	4%
Cc1cc(Br)cn2c(Cc3cccc(F)c3)c(-c3ccccc3)nc12	-2.9	2	-3	·	-1	·
CO/N=C/C(=N\Nc1ccc(C)cc1)C(=O)c1ccc(OC)cc1	-0.1	-2	-6	13%	2	-12%
COCCCn1c(=O)/c(=C\c2ccccc2OC(F)F)s/c1=C(/C#N)C(N)=O	-1.2	-19	10	-2%	0	-1%
Nc1nnc(SCC(=O)c2ccco2)s1	-2.9	8	3	-1%	-1	-9%
CCOc1ccccc1-c1nc(C(N)=O)c2[nH]c(=O)n(-c3ccccc3)c2n1	-3.3	-13	14	-8%	1	11%
CCOc1ccc2nc(SCC(=O)NCc3ccc(OC)cc3)[nH]c2c1	-2.3	3	-4	-1%	-3	0%
CCCc1ccc(Oc2cc(NN3CCCCC3)c([N+](=O)[O-])cc2[N+](=O)[O-])cc1	-2.8	0	-26	-5%	2	·
Cc1ccc(NS(=O)(=O)c2c(C(=O)N3CCCCCC3)c(C)n(C)c2C)c(Cl)c1	-5.5	-1	-2	-11%	-1	-38%[inhibitor]
COc1ccc(OC)c(CCNC(=O)Cc2ccc(NC3=NC4CS(=O)(=O)CC4S3)cc2)c1 (stereo not drawn)	-3.6	-3	-5	3%	2	-14%
C(=N\Nc1nc2ccccc2[nH]1)/c1ccncc1	-10	-2	-10	-15%	-10	9%
COc1ccc(C(CNC(=O)c2oc3ccccc3c2C)N2CCCC2)cc1 (stereo not drawn)	-4.1	-10	-35	4%	-4	20%
Cc1ccc(NC(=O)Cn2nnc3ccccc32)c(C)c1	1.6	13	-9	-11%	2	-1%[15.4 µM]
Cc1cccc(NC(=S)NCc2ccc3c(c2)cc(C)n3C)c1C	-3.8	?	-9	6%	?	-5%
CCN(C(=O)COC(=O)CNS(=O)(=O)c1ccc(C)cc1)C1CCS(=O)(=O)C1 (stereo not drawn)	-3.5	-9	-4	·	5	?
O=C(CC(C(=O)O)C1CCCO1)NCCc1ccc2c(c1)OCO2 (stereo not drawn)	-0.8	6	-1	12%	5	-23%
COc1ccc(/C=N/NC(=O)c2nc(-c3ccccc3)n(-c3ccccc3)n2)cc1	2.3	-13	-2	-23%	-27	23%

Five compounds out of the list above, ordered by their value in CtBP-E1A inh, ascending.
molecule | D2 ag | CtBP-E1A inh | D2 PAM | Six1-Eya2 blk | gsp ag
CCOc1ccccc1-c1nc(C(N)=O)c2[nH]c(=O)n(-c3ccccc3)c2n1 | -3.3 | -13 | 14 | 1 | 11%
COc1ccc(OC)c(CCNC(=O)Cc2ccc(NC3=NC4CS(=O)(=O)CC4S3)cc2)c1 (stereo not drawn) | -3.6 | -3 | -5 | 2 | -14%
C(=N\Nc1nc2ccccc2[nH]1)/c1ccncc1 | -10 | -2 | -10 | -10 | 9%
Cc1cc(Br)cn2c(Cc3cccc(F)c3)c(-c3ccccc3)nc12 | -2.9 | 2 | -3 | -1 | ·
Nc1nnc(SCC(=O)c2ccco2)s1 | -2.9 | 8 | 3 | -1 | -9%

(cont.)
SMILES	D2 ag	CtBP-E1A inh	D2 PAM	gsp antagonist	Six1-Eya2 blk	gsp ag
O=c1[nH]n2c(=O)c3c([nH]c2c1N=Nc1cccc(Cl)c1)CCC3	-9.0	-1	-15	?	?	23%
COc1ccc(S(=O)(=O)Cc2ccc(C(=O)NCc3ccccn3)o2)cc1	-1.4	1	0	5%	-5	3%
COc1ccc(NC(=O)CC2SC3=NCCN3C2=O)cc1 (stereo not drawn)	0.9	·	-3	2%	14	5%[15.4 µM]
Cc1cc2ccccn2c1C(C[N+](=O)[O-])c1ccc(N(C)C)cc1 (stereo not drawn)	-1.5	-25	-4	2%	-25	-11%[15.4 µM]
CCOC(=O)c1c(-c2cc(OC)c(OC)c(OC)c2)csc1N	-0.9	-1	-10	·	-15	-3%
CCC(C)[C@H](NC(=O)N1CC(=O)Nc2ccccc21)C(=O)NC(C)CCc1ccccc1 (stereo partly drawn)	0.8	3	-4	5%	-1	0%
CCc1nnc(NC(=O)CCc2ccc(C)o2)s1	-0.8	-2	-3	10%	-4	11%
COc1cccc(S(=O)(=O)Nc2noc3ccccc23)c1	-8.5	21	0	4%	-13	-20%
CN1c2ccccc2C(C)(C)C12CC(c1ccc(S(=O)(=O)N3CCCCC3)cc1)=NO2 (stereo not drawn)	-2.8	·	-6	5%	0	-7%
O=C(c1ccc(Cl)c(S(=O)(=O)NCc2ccccc2)c1)N1CCN(c2ccccn2)CC1	3.1	4	-3	?	0	-20%
COc1ccc(S(=O)(=O)NCc2cccnc2)cc1NC(=O)c1ccccc1	-2.5	-18	-12	5%	3	-9%[15.4 µM]
CCc1cc(C(=O)COc2ccc(F)cc2)c(O)cc1O	-2.3	·	-14	-11%	3	14%
COc1ccc2nc(COC(=O)c3cccs3)c(C(C)=O)[n+]([O-])c2c1	-0.5	·	2	5%	-1	1%
COc1cccc(C2NC(C)(C(=O)O)C3C(=O)N(C(C)C)C(=O)C23)c1O (stereo not drawn)	-2.7	0	-3	-3%	14	?
CC(C)(C)C(=O)Cn1c(=O)n(CC2CCCO2)c(=O)c2ccccc21 (stereo not drawn)	-3.9	-9	0	-5%	12	0%[15.4 µM]
COc1cccc(CNC(=O)c2ccc(NC(=O)C3=CSCCO3)cc2)c1	-5.2	·	-10	0%	-7	10%
C/C(CC(=O)C(F)(F)F)=N\NC(=O)/C(C#N)=C/N(C)C	0.1	-15	-10	10%	-1	-2%
N#Cc1c(SCC(=O)N2CCOCC2)nsc1SCC(=O)N1CCOCC1	-3.5	1	-9	7%	3	15%

Compound activity: PubChem, National Center for Advancing Translational Sciences (NCATS)
